Bioassay records deposited in PubChem by Fisher Drug Discovery Resource Center.
NPYLR7 ag: mosquito NPYLR7 agonism; HEK293T NPYLR7/Galpha15, GCaMP6s calcium fluorescence; activation, % at 10 µM; actives 0.15% (n = 270,000); AID 1259423; in the data active means activation above about 40%;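 further: 0% = vehicle and 100% = reference agonist at the receptor; some compounds past the cut are filed as inactive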
NPYLR7 ag max-min: recorded beside NPYLR7 ag, whose call it bears; activation, %; measured here: Max-Min RFU normalised activation; some inactives read as strong as hits;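 span of the calcium signal over five minutes; 0% = vehicle and 100% = native peptide agonist; compound fluorescence can raise it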
Active calls of the source: *; & = joins results of further samples. These rows are one share of the data; the hit share may differ from the screen's.

SMILES | NPYLR7 ag | NPYLR7 ag max-min
CC(NC(=O)CN1CCCCCCC1)c1nncn1C (stereo not drawn) | 29 | 22
CC(=O)c1c(C)oc2ccc(N(C(=O)/C=C/c3ccccc3)S(=O)(=O)c3ccccc3)cc12 | 1 | 0
CC1(C)CCC(NC(C(N)=O)c2ccccc2)c2ccccc21 (stereo not drawn) | 5 | 3
CCOC(=O)C1=c2/c(=C/c3ccncc3)c(N)c(C(=O)OC)n2C(=O)C(c2ccncc2)S1 (stereo not drawn) | 9 | 30
COC(=O)c1cnc(NC(=O)c2cc(F)cc(Br)c2)s1 | 7 | 1
O=C(c1ccc(=O)[nH]n1)N1CCCCC1c1nc2ccccc2s1 (stereo not drawn) | 4&7 | 1&1
CCOC(=O)c1ccc(NC(=O)N2CCSC2c2cc(OC)cc(OC)c2)cc1 (stereo not drawn) | 3 | 8
CN1CCN(C(=O)c2ccccc2N2CCC(NC(=O)c3cccc(Cl)c3)CC2)CC1 | -12 | -4
Cc1cc(-c2nnc(NC(=O)c3ccc(S(C)(=O)=O)cc3)o2)nn1C | -5 | -11
COc1cc(C#N)ccc1OCc1ccc(C(N)=O)cc1 | 0 | -2
COc1cc(NC(=O)CSc2nnc(C(C)Oc3ccccc3F)o2)cc(OC)c1OC (stereo not drawn) | -3 | -4
CCOC(=O)C1CCCN(C=C2N=C(c3scnc3C)ON2)C1 (stereo not drawn) | -3 | -3
Cc1ccc(-c2cnn3c(NCc4ccc5c(c4)OCO5)ccnc23)cc1 | -6 | -10
CCc1[nH]c2ccc(CNC(=O)CCn3c(=O)[nH]c4ccccc43)cc2c1C | 8 | 4
C#CCOCC(O)CN(CCN1CCOCC1)Cc1ccc(F)cc1F (stereo not drawn) | 26 | 31
COc1ccc(OC)c(NC(=O)CSc2nc(=O)n(N3CCN(C)CC3)c3c2CCCC3)c1 | -1 | -7
O=S1(=O)N=C2CCCCCN2C(c2ccc(OC(F)F)cc2)N1 (stereo not drawn) | 8&5 | 9&2
CS(=O)(=O)c1cc([N+](=O)[O-])c(NCC(F)(F)C(F)F)c([N+](=O)[O-])c1 | 3 | 4
NC(CO)(CO)CO | -11 | -22
Cc1ccccc1NC(=O)N1CCN(c2c3c(nc4ncnn24)CCCC3)CC1 | 2 | -1
Cc1cc(C)n2c(SCCO)nnc2n1 | -1 | 6
Cc1ccccc1CN(Cc1ccc2c(c1)OCO2)CC(O)COCC(C)C (stereo not drawn) | 22 | 25
Cc1cc(NC(=O)CN2C(=O)CN(C)C2=O)no1 | 4 | 2
Cc1ccc(CN(CC(O)COCc2ccccc2)C2CC2)c(C)c1 (stereo not drawn) | 17 | 28
Cc1nn(-c2ccc(N3CCCC3)nn2)c2c1C(c1ccc(C(=O)O)cc1)CC(=O)N2 (stereo not drawn) | -17 | -24
Cc1nc(N2CCCC(C)C2)nc2c1C(=O)CC(c1ccco1)C2 (stereo not drawn) | 2 | 4
Cc1ccccc1CCC1CCCN(C(=O)c2ccccc2-c2ncc[nH]2)C1 (stereo not drawn) | 5 | 1
COc1ccc(CCN(C)c2cc(C(F)(F)F)nc(SCc3ccc(C(=O)NCCN(C)C)o3)n2)cc1OC | 3 | 11
COCCNc1nc(N)c([N+](=O)[O-])c(Nc2ccc(C)c(C)c2)n1 | 0 | -1
O=C(c1cnccn1)N1CCN(c2snc3ccccc23)CC1 | 10 | 9
O=C(O)C1(C/C=C/c2ccccc2)CCCN(c2cnc3ccccc3n2)C1 (stereo not drawn) | 27 | 20
Cc1nn(CC(O)COc2ccc(C(=O)c3ccccc3)cc2)c(C)c1Cl (stereo not drawn) | 6 | 11
COc1ccc(NC(C)(C)C(=O)N2CCc3c(ncnc3N(C)C)C2)cc1 | 4 | 0
Cc1cc[n+](C2=C(c3c(C)[nH]n(-c4ccccc4)c3=O)C(=O)N(Cc3ccccc3)C2=O)cc1 | -1 | 2
O=C(c1ccoc1)N1CCN(S(=O)(=O)c2ccc(F)cc2F)CC1 | 1 | 5
C=CCOC(=O)C1C(C)=Nc2nc(SCC=C)[nH]c(=O)c2C1c1cccc(F)c1 (stereo not drawn) | -2 | -5
COc1ccc(C2C3=C(CCCC3=O)OC(=N)C2C#N)cc1OC (stereo not drawn) | 2 | -2
CCC(CC)C(=O)N(C)c1c(C)nc2c(OCC(=O)N(C)C)cccn12 | 11 | -3
COCCN1CCCC2(CCN(C/C(C)=C/c3ccco3)C2)C1 (stereo not drawn) | 3 | -2
CSc1ccc(C2Nc3ccccc3N=C3CC(C)(C)CC(=O)C32)cc1 (stereo not drawn) | -1 | 0
O=C(NC1CCN(C(=O)c2ccc3c(c2)OCO3)CC1)C1CC1 | 1 | -1
CC(C)c1ccc2c(c1)CCC1C(C)(C(N)=O)CCCC21C (stereo not drawn) | -7 | -12
CN(CCCN1C(=O)NC(C)(C)C1=O)Cc1ccc(C(F)(F)F)cc1 | 2 | 8
O=C(CN1C(=O)C2CC=CCC2C1=O)NC1CCCCC1 (stereo not drawn) | 4 | 7
CN(C)CCCN1C(=O)C(=O)C(=C(O)c2ccc(Cl)cc2)C1c1ccc(F)cc1 (stereo not drawn) | 5 | 5
COc1ccccc1OCC(=O)N(CCn1cccn1)c1nc2c(Cl)cccc2s1 | -18 | -20
Cc1ccc(CNC(=O)CNC(=O)c2ccc(F)cc2F)n1C | 9 | 5
COc1cccc(-c2nccn2CC2COc3ccccc3O2)c1OC (stereo not drawn) | 6 | 5
COc1ccc(NC(=O)c2ccc(-c3cccc(Nc4ccc(Oc5ccccc5)cc4)n3)cc2)cc1 | -7 | -10
CC1=NCCN1S(=O)(=O)c1ccc(Cl)c([N+](=O)[O-])c1 | -3 | 9
COC(=O)CCC(=O)N1CCN(c2cc(S(=O)(=O)N(C)c3ccc(OC)cc3)ccc2OC)CC1 | 6 | 2
CC1CN(C(=O)C(=O)NC(c2ccccn2)C(C)C)c2ccccc21 (stereo not drawn) | 2 | 0
CC(NC(=O)C1CCCC1)C(=O)NCCCc1ccc(N(C)C)cc1 (stereo not drawn) | 5 | 2
O=C(NCc1nnnn1-c1ccc(F)c(F)c1)c1ccc(F)c(F)c1 | -1 | -1
Cc1cc(C(=O)N2CCOC(COCc3ccccc3F)C2)co1 (stereo not drawn) | 6 | 21
CCC(Oc1ccccc1)C(=O)N1CCc2c(cnn2-c2ccc(S(C)(=O)=O)cc2)C1 (stereo not drawn) | 7 | 7
NC(=O)C(Cc1ccccc1)NC(=O)/C=C/c1c(F)cccc1F (stereo not drawn) | -5 | -5
O=c1oc2ccc(Br)cc2cc1-c1nnc(Nc2ccccc2)s1 | -8 | -15
Cc1cccc2c(=O)c(-c3cccc4ccccc34)c(N)oc12 | 3 | 1
CCOC(=O)C1=C(C)NC(SC)=NC1c1ccccc1 (stereo not drawn) | -7 | -13

The listing continues.
SMILES | NPYLR7 ag | NPYLR7 ag max-min
CCC(OC1CCCC1)C(=O)N(C)CC(C)C#N (stereo not drawn) | 1 | -5
O=C(Nc1ccc(=O)n(Cc2ccc(Cl)c(Cl)c2)c1)c1cc2ccccc2c(=O)[nH]1 | -1 | 48
Cc1noc(C)c1CC(C)C(=O)NS(=O)(=O)c1ccc(F)cc1 (stereo not drawn) | -20&-1 | -21&0
O=C(CCC(=O)c1ccc2c(c1)CCCC2)NC(c1nn[nH]n1)c1cc(F)ccc1F (stereo not drawn) | 2 | 11
CC(C)(C)c1ccc(C2=NC(=Cc3ccc4c(c3)OCCO4)C(=O)O2)cc1 | 10 | 13
CCC(=O)N(C)c1ccccc1C(=O)NC(C)C(O)Cc1ccccc1 (stereo not drawn) | -5 | -5
CN(C)n1c2c(c3oc(=O)cc(O)c3c1=O)CCCCC2 | -12 | -14
CC(CCN1CCOCC1)NC(=O)CC1(O)CCCCC1 (stereo not drawn) | -6 | 179
CC(=O)c1cc(C(=O)N2CCC(n3cc(C(C)(C)O)nn3)CC2)cs1 | 3 | 1
Cc1ccc(Cc2nsc(N3CCN(C(=O)Nc4cccc5ccccc45)C(C)C3)n2)cc1 (stereo not drawn) | -10 | -14
COc1ccc(N2CCC(Nc3nnc(C)c(C)c3C#N)CC2)cc1 | -30 | -27
OCc1ccc(F)cc1Br | 9 | 3
CCS(=O)(=O)c1ccc2c(c1)N1CCS(=O)(=O)N=C1O2 | 5 | 1
COc1cccc(C(=O)NC(=NC(C)C)OCC(C)C)c1 | 20 | 14
COc1ccc(-c2nc3ccccc3c(=O)n2Cc2ccc(Cl)cc2)cc1F | 6 | 1
CCOC(=O)c1ccc2c(c1)nc(SCc1cccc(OC)c1)n2Cc1cccc(F)c1 | 2 | 3
Cc1cnc(C(=O)NC(c2ccc(F)cc2)C2CCCC2)cn1 (stereo not drawn) | 0 | -3
CCN(CC)Cc1n[nH]c(=S)n1N | 2 | -3
CC(C)Oc1ccc(Cl)cc1C(=O)NCc1cn2c(n1)CCCC2 | -23&16 | -28&18
O=C(c1cccc(Cl)c1)N(Cc1cccnc1)c1nc2c(F)cccc2s1 | -6 | -5
Cc1ncsc1C(=O)N1CCCC(CCc2ccccc2C(F)(F)F)C1 (stereo not drawn) | 5 | 1
CC1(C)CC2C(O)c3cocc3CC(C)(O)C2C1 (stereo not drawn) | -11 | -18
COCCNC(=O)C1CCCN(C2CCN(Cc3nnc(C)s3)CC2)C1 (stereo not drawn) | 1 | 8
CC(=O)Oc1c(-c2ccc(NC(=O)c3ccccc3Cl)cc2)c(-c2ccc3c(c2)OCO3)nn1-c1ccc(F)cc1 | 2 | 7
O=C(CN1CN(c2ccccc2)C2(CCN(C(=O)c3ccccc3Cl)CC2)C1=O)NCc1cccc(C(F)(F)F)c1 | 8 | 7
COC(=O)CNC(=O)COc1ccc(OC)cc1 | 3 | 8
Cc1cc(Br)c2[nH]c(O)c(N=Nc3cccc4cccnc34)c2c1 | 3 | 6

Structural class: the entries above with a Cl atom (11)
SMILES | NPYLR7 ag | NPYLR7 ag max-min
CN1CCN(C(=O)c2ccccc2N2CCC(NC(=O)c3cccc(Cl)c3)CC2)CC1 | -12 | -4
Cc1nn(CC(O)COc2ccc(C(=O)c3ccccc3)cc2)c(C)c1Cl (stereo not drawn) | 6 | 11
CN(C)CCCN1C(=O)C(=O)C(=C(O)c2ccc(Cl)cc2)C1c1ccc(F)cc1 (stereo not drawn) | 5 | 5
COc1ccccc1OCC(=O)N(CCn1cccn1)c1nc2c(Cl)cccc2s1 | -18 | -20
CC1=NCCN1S(=O)(=O)c1ccc(Cl)c([N+](=O)[O-])c1 | -3 | 9
O=C(Nc1ccc(=O)n(Cc2ccc(Cl)c(Cl)c2)c1)c1cc2ccccc2c(=O)[nH]1 | -1 | 48
COc1ccc(-c2nc3ccccc3c(=O)n2Cc2ccc(Cl)cc2)cc1F | 6 | 1
CC(C)Oc1ccc(Cl)cc1C(=O)NCc1cn2c(n1)CCCC2 | -23&16 | -28&18
O=C(c1cccc(Cl)c1)N(Cc1cccnc1)c1nc2c(F)cccc2s1 | -6 | -5
CC(=O)Oc1c(-c2ccc(NC(=O)c3ccccc3Cl)cc2)c(-c2ccc3c(c2)OCO3)nn1-c1ccc(F)cc1 | 2 | 7
O=C(CN1CN(c2ccccc2)C2(CCN(C(=O)c3ccccc3Cl)CC2)C1=O)NCc1cccc(C(F)(F)F)c1 | 8 | 7
